# Sfp PPTase inh: Sfp phosphopantetheinyl transferase inhibition | Biochemical Sfp PPTase activity, qHTS | 3.5% of 310,000 active | Q9F4F7 | Potency, µM, for inactives: max response, negative = inhibition, usual class: inhibitors | AID 1490; active = well fitted inhibition curve with a large enough effect; inconclusive = small, poorly fitted or top-dose-only effect, or another doubt; inactive = no such curve, though single readings can be large or run the other way;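 also: the enzyme is Sfp with the accession as filed and its product quenches rhodamine fluorescence; potency is read from the fitted curve at half-maximal effect; 0% = enzyme reaction without inhibitor and -100% = no enzyme wells; top concentration of the series not given in the record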
#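 Buffer: 50 mM Hepes-Na pH 7.6, 10 mM MgCl2, 0.01% Nonidet P-40, 0.01% BSA. Enzyme 15 nM, pre-exposed to compound 15 min; substrates then added and fluorescence change tracked over 30 min.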
# Menin-MLL FL inh: menin-MLL binding inhibition, fluorescein peptide; Fluorescence polarization, fluorescein-MLL peptide displacement from menin; FP activity change, % at 61.4 µM; 290,000 tested, under 10 active; AID 1766; inconclusive = falling polarisation curve, or a change in total fluorescence; inactive = total fluorescence flat and polarisation flat or rising; no compound was filed as active; the % refers to the polarisation; negative = inhibition;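 also: % of control where 0% means no effect; inhibitors lower the polarisation; unlabelled MLL peptide was the positive control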
# ClpP mod: qHTS Assay for Activators of ClpP. ATP-dependent Clp protease proteolytic subunit (Bacillus subtilis (strain 168)), P80244. purified B. subtilis ClpP, FRET peptide cleavage, 20 min. Potency, µM (highest dose often 57.5 µM), without a hit: top-dose activity change, negative = active. 1.9% of 340,000 active; active = well fitted falling curve with a large enough effect; inconclusive = small, poorly fitted or top-dose-only effect; inactive = no such curve, though single readings can be large or run the other way; also: potency is read from the fitted curve at half-maximal effect; the source files actives as falling curves though it sought activators and does not explain the sign; nearly all actives have a fitted effect of over 65% in size; many hits overshoot -100%
# Target sequence (P80244 whole entry, looked up): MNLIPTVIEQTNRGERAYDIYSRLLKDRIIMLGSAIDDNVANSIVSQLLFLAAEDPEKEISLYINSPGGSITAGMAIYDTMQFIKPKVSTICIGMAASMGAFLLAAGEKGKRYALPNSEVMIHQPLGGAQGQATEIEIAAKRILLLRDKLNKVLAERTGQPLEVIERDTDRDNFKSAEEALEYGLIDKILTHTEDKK
#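 FRET quenching reversal measured ClpP activation: 10 microg/mL B. subtilis ClpP at pH 8 with the FRET-FV decapeptide, read at 430 nm after 320 nm excitation. The 20-min minus 0-min signal was scaled between DMSO/no-enzyme wells and ADEP (5.8 microM final).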
# gsp ag: activates gsp, the McCune-Albright syndrome mutation; 0.13% of 340,000 active; gsp mutant cells, cAMP HTRF, 30 min; control for the full effect not named in the record; Potency, µM (highest dose often 76.9 µM), for the others: at the top dose activation (cAMP increase), most hits filed as activators; active = well fitted activation curve with a large enough effect; inconclusive = small, poorly fitted or top-dose-only effect, or another doubt; inactive = no such curve, though single readings can be large or run the other way; cell line not stated here;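 also: phosphodiesterase inhibitor Ro 20-1724 added with compounds to block cAMP breakdown; potency is read from the fitted curve at half-maximal effect; nearly all actives have a fitted effect of over 60% in size; about a fifth of the inactives were tested at one dose only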
#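 Cells in DMEM/10% FBS with G418 were pretreated with compounds in DMSO plus […] (300 uM stock) for 30 min at 37C. cAMP was measured by HTRF (cAMP-d2 plus anti-cAMP antibody-K) after 30 min at room temperature.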
# D2 potentiator: positive allosteric modulators of human D2 dopamine receptor | 0.23% of 360,000 active | potentiation, % (concentration not given with the values) | DiscoveRx D2 beta-arrestin cells, luminescence, 90 min; 100% = 57 uM dopamine signal | P14416; active = potentiation of 50% or more; inconclusive = 30% to 50%; inactive = 30% or less;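 also: compound concentration not given in the record; tested on top of an EC20 dose of dopamine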
# Target sequence (P14416 whole entry, looked up): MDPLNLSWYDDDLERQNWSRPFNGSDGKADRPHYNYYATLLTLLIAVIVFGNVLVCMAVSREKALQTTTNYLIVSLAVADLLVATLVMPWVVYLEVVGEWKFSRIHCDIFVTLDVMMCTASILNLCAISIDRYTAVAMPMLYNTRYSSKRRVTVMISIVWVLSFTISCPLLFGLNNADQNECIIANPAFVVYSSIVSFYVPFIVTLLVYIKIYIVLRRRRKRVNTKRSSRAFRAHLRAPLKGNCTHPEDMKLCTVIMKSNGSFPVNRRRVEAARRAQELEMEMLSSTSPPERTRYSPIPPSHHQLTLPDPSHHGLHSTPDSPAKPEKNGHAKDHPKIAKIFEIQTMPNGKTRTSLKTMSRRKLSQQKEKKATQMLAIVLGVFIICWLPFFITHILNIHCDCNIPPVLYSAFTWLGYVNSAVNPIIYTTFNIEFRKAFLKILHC
#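 PathHunter beta-arrestin assay in DiscoveRx D2 cells. Compounds were added with an EC20 of dopamine (50 nM final) for 90 min at 37 deg C. Luminescence was read 1 h after detection reagent, with 57 uM dopamine as the EC100 control.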
# TRPV1 potentiator: human TRPV1 potentiation. potentiation, % at 8.33 µM. TRPV1-expressing cells, Fluo-8 calcium influx, capsaicin EC20 potentiation; host cell line not named in the record; control for the full effect not named in the record. 0.02% of 320,000 active. Q8NER1; active means potentiation above 80%; inconclusive means 30% to 80%; inactive means below 30%; also: 0% is about no effect
#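 Fluo-8 calcium influx in TRPV1-expressing cells, kinetic read (ex 480/em 520 nm). Compound added and read 3 min for agonist activity, followed by capsaicin at EC20 final and 2 min further read for enhancement.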
# gsp antag: gsp mutant antagonism. gsp-mutant cells, cAMP HTRF, 30 min; control for the full effect not named in the record. AID 624288. 0.4% of 340,000 active. Potency, µM (series often up to 76.9 µM), for the others: at the top dose activity change, negative = inhibition, hits mostly inhibitors; active = falling curve of any shape with a large fitted effect; inconclusive = falling curve, mostly with a smaller effect; inactive = flat or rising curve; cell line not stated here;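 also: intracellular cAMP measured with PDE inhibitor Ro 20-1724 present during compound exposure; potency is read from the fitted curve at half-maximal effect; % is scaled to controls: 0 for no effect and ±100 for the full control effect; nearly all actives have a fitted effect of over 65% in size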
#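 Cells in G418 medium, seeded 16-24 h, 37C; buffer exchange to DPBS + 1 mM CaCl2, 0.5 mM MgCl2, 0.05% BSA; cpds in DMSO + […] (300 uM stock), 30 min 37C; HTRF cAMP detection.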
# Starred values were filed as active, the others as inactive; ? = inconclusive; . = no result given; & = joins results of further samples; [ ] = another dose, or the depositor's remark.
SMILES,Sfp PPTase inh,Menin-MLL FL inh,ClpP mod,gsp ag,D2 potentiator,TRPV1 potentiator,gsp antag
COc1ccc(/C=C2\Sc3ccc(C(=O)N4CCN(Cc5ccccc5)CC4)cc3N(C)C2=O)cc1OC,-2%,3.4,-10%,-10%,-15,7,-22%
Fc1ccccc1Cn1cnc(NC(=S)NCCc2ccccc2)n1,-24%,-0.6,.,.,.,4,.
CC(Oc1ccc2c(=O)c(-c3ccc(Cl)cc3)c(C(F)(F)F)oc2c1)C(=O)O (stereo not given),18%,3.2,-4.4%,-3%,-13,-6,-13%
O=C(O)Cc1cn(Cc2ccc(F)cc2)c2ccccc12,23%,1.0,.,-6%,3,-1,-7%
CCn1nc(C)cc1C(=O)NC1CCCc2c1cnn2-c1ccc(C)c(C)c1 (stereo not given),-3%,.,-0.7%,-56%[inhibitor],-10,17,-31%
O=C1CC(c2ccc(S(=O)(=O)NC3CC3)cc2)CN1 (stereo not given),3%,2.2,-0.4%,27%,-2,.,3%
CC(C)(C)NS(=O)(=O)c1cc(C(=O)O)ccc1Cl,14%,-1.9,.,2%,5,5,6%
CC1CCN(c2ccc(C(=O)NCc3ccc4c(c3)OCO4)cc2[N+](=O)[O-])CC1,0%,-2.1,2.0%,-73%[inhibitor],-12,-10,-6%
O=S(=O)(c1cc(Cl)ccc1Cl)N1CCN(Cc2ccco2)CC1,22%,-1.0,-6.3%,0%[15.4 µM],-6,10,-4%
N#CCSc1ccccc1NC(=O)COc1ccc(-c2nnco2)cc1,.,.,-1.3%,5%,-2,2,-8%
O=[N+]([O-])c1nn(-c2ccc3c(c2)OCCO3)n(O)c1=NC1CCCC1,-6%,1.8,-4.5%,0%,75*,-19,11%
O=C(O)C/C(=C\c1ccc(N2CCOCC2)c([N+](=O)[O-])c1)c1nc2ccccc2s1,-9%,?,-3.1%,13%,-9,5,-19%
COc1ccc(NC(=O)c2ccccc2O)c(OC)c1,?,-1.6,1.6%,-3%,-12,7,-28%
c1ccn(CCc2ccncc2)c1,.,.,.,-30%[inhibitor],-3,.,-1%
CC(=O)NC(Cc1ccc(C)cc1)C(=O)NC1CCN(C(=O)NCc2ccccc2)CC1 (stereo not given),15%,3.1,?,-9%[15.4 µM],15,-20,14%
COc1ccc(-c2nnc(NC(=O)C(C)C)s2)c(OC)c1,0%,0.4,4.3%,?,-5,10,8%
O=C(c1ccc(Br)cc1)N1CCCc2ccccc21,-4%,3.0,0.3%,0%[15.4 µM],5,-21,-5%
Cc1ccc(C(OCC(C)(C)C[N+](C)(C)C)c2ccccc2)cc1 (stereo not given),45µM*,3.9,.,-1%,-6,18,3%
O=[N+]([O-])c1ccc2nc(NN=Cc3ccc(O)cc3)sc2c1,.,.,.,-9%,-14,.,-15%
O=C(Nc1cccc(S(=O)(=O)NC2=NCCC2)c1)c1ccc(C(F)(F)F)cc1,.,.,-0.1%,6%[15.4 µM],3,.,2%
CC1=CCC2C(=O)N(Cc3ccccc3)C(=O)C2C1 (stereo not given),-13%,-2.3,-0.4%,-12%,-30,11,12%
COc1ccc(C)cc1NC(=O)c1nnn(Cc2cc(C)ccc2C)c1N,17%,-2.6,-19%,15%,-1,.,1%
O=C(OCc1ccc(COC(=O)c2ccc(O)cc2)cc1)c1ccc(O)cc1,2%,17,2.0%,9%[15.4 µM],-1,5,?
O=C(CCCN1C(=O)/C(=C/c2cccs2)SC1=S)Nc1ccc(O)c(C(=O)O)c1,?,-3.0,.,.,.,8,.
CN(C)C(=O)CSc1nnc([C@H](Cc2c[nH]c3ccccc23)NC(=O)OC(C)(C)C)o1,9%,-0.3,-0.1%,-29%,-8,-14,2%
Cn1c(=O)c(N)c2c3c(c(Br)ccc31)C(=O)c1ccccc1-2,1%,?,2.4%,-1%,-15,.,-11%
Cn1c(-c2ccc(C(=O)c3ccccc3)s2)nc2ccccc21,.,.,20µM*,-28%,-4,.,-15%
COc1ccc(-c2nnc(SCC(=O)Nc3cc(C)on3)n2C)cc1OC,17%,2.7,2.9%,6%,7,-7,8%
Cc1nc(N=Nc2ccc(O)cc2)n[nH]1,?,5.4,0.8%,-18%,-14,-7,-2%
Cc1[nH]c2ccccc2c1C(=O)CN1CCN(C/C=C/c2ccccc2)CC1,-4%,-7.1,-0.3%,12%,-44,-9,12%
CC1CCCCC1NC(=O)Cn1nc(-c2ccccc2)ccc1=O (stereo not given),10%,-3.7,-9.2%,6%,-15,1,1%
CC(=O)Nc1ccc(Oc2ccc3nc(C)[nH]c3c2)cc1,20%,0.1,0.7%,9%,-32,-2,9%
Cc1ccc(C)c(S(=O)(=O)N2C(=S)NC(=O)C2C(C)C)c1 (stereo not given),-10%,0.1,-2.0%,2%,-2,?,-2%
CCC1CCC(C(=O)NC(C(=O)Nc2ccc3c(c2)OCCO3)C(C)C)CC1 (stereo not given),0%,0.1,-0.2%,0%,-1,4,6%
Cc1ccc(S(=O)(=O)NCc2ccc(C(=O)N3CCN(c4ccccc4)CC3)cc2)cc1,12%,-0.3,-0.3%,?,0,2,-15%
Nc1ccc2oc(-c3cc(Br)ccc3Cl)nc2c1,10%,1.0,1.9%,26%,3,5,10%
CCn1cc(C(=O)O)c(=O)c2cc(F)c(N3CCN(S(=O)(=O)c4ccc(Br)cc4)CC3)cc21,-18%,-1.6,.,.,.,4,.
CCc1ccc(CN2CCC(N3CCC(C(=O)N4CCCC4)CC3)CC2)o1,10%,.,-2.6%,21%,-2,8,3%
O=C(c1nc2ncccn2n1)N1CCN(c2ccccc2)CC1,4%,1.2,0.5%,-31%[inhibitor],-8,2,-2%
C=CCNC(=O)Nc1ccc(Br)cc1Cl,5%,1.8,1.3%,20%,-7,-1,?
Cc1cc([N+](=O)[O-])nn1CCCC(=O)NCc1ccccc1,7%,5.2,-2.1%,-15%,0,-12,5%
CN(C)S(=O)(=O)c1cccc(NC(=O)c2ccc(N3CCCC3=O)cc2)c1,.,.,1.6%,-18%,-6,.,11%
COC(=O)c1cc(NS(=O)(=O)c2cccc(Cl)c2)ccc1N1CCOCC1,21%,1.7,0.1%,-24%,3,.,-2%
COc1cccc(C2c3[nH]c4ccccc4c3C[C@H]3C(=O)N(C)CC(=O)N23)c1 (stereo not given in full),17%,-6.7,0.1%,-11%,-4,0,14%
CC(C)C(=O)Nc1ccc([N+](=O)[O-])cc1Br,11%,1.9,35µM*,-27%,-11,-1,5%
O=C(NC(n1ccc(=O)[nH]c1=O)C(Cl)(Cl)Cl)C12CC3CC(CC(C3)C1)C2 (stereo not given),-2%,1.5,.,-11%[15.4 µM],-5,-36,38%[activator]
O=c1o[nH]c(-c2ccccc2)c1-c1ccccc1,.,.,.,-2%[15.4 µM],-7,.,-13%
COCCNC(=O)CCSc1nc(-c2ccc(OC)cc2)cc(C(F)(F)F)n1,0%,0.0,4.6%&-21%,-15%,-10,-4,-10%
Cc1ccccc1OCCN1C(=O)c2ccccc2C1=O,4%,-0.2,1.4%,-43%,-8,-7,-4%
CC(C)CC(=O)N=C1SC2CS(=O)(=O)CC2N1Cc1ccccc1 (stereo not given),11%,.,.,-3%[15.4 µM],-5,-5,15%
# (more compounds)
SMILES,Sfp PPTase inh,Menin-MLL FL inh,ClpP mod,gsp ag,D2 potentiator,TRPV1 potentiator,gsp antag
Cc1ccc(S(=O)(=O)N2CCCOC2CNC(=O)C(=O)NCCc2ccco2)cc1 (stereo not given),.,.,-2.2%,?,-23,.,.
Cn1c2ccc(CC(=O)O)cc2c2cc(CC(=O)O)ccc21,-13%,2.4,?,-3%,-7,1,-12%
COc1ccccc1CC(=O)NNC(=O)c1ccco1,2%,-3.2,.,-21%[15.4 µM],1,2,11%
CCCCN(C(=O)c1cc2ccccc2o1)c1c(N)n(CCC)c(=O)[nH]c1=O,7%,-1.6,.,-1%[15.4 µM],-6,0,8%
CC1(C)CC(=O)C(N=Nc2cc3c(cc2[N+](=O)[O-])OCCO3)=C(O)C1,-2%,?,-0.4%,8%,-47,-1,4%
Fc1ccc(-c2cc(C(F)(F)F)nc(NCC3CCCO3)n2)cc1 (stereo not given),1%,-1.1,-30%,24%,-6,-11,-2%
COc1ccc(S(=O)(=O)N2CCN(C3CC4CCC3C4)CC2)cc1 (stereo not given),-8%,-1.1,0.2%,-3%[15.4 µM],-6,-5,-2%
CCOC(=O)c1cnc(-n2nc(C)cc2C)nc1Nc1ccc2c(c1)OCO2,4%,1.3,.,.,.,7,.
N#CCC(=O)Nc1ccc(C(=O)OCC(=O)c2ccc3c(c2)OCO3)cc1,.,.,.,-7%[15.4 µM],6,1,-3%
CCOc1ccc(NC(=O)NC2CCCc3ccccc32)cc1 (stereo not given),19%,-2.0,1.4%,-26%,-10,12,11%
CCc1ccc(OCCNC(=O)c2ccccc2SCc2ccc(F)cc2)cc1,15%,-1.5,0.6%,-47%[inhibitor],-14,-6,?
CCN1CCN(CC(O)COCC2COc3ccccc3O2)CC1 (stereo not given),14%,-4.7,.,-7%[15.4 µM],1,9,10%
CCN1C[C@@H]2[C@@H]3C(=O)N(C)C(=O)[C@@H]3[C@](CC)(C1=O)N2C(=O)c1ccc(C(F)(F)F)cc1,.,.,-0.6%,19%,-10,.,0%
COc1ccc(CNC(=O)CN(c2ccc(C)cc2)S(=O)(=O)c2c(C)noc2C)cc1,11%,3.1,-1.1%,-17%,-10,4,-8%
CC(=O)CC(=O)Nc1ccccc1NC(C)=O,19%,7.2,-0.2%,-35%[inhibitor],4,8,9%
Cc1cn(CC(=O)c2ccccc2)c2ccccc12,1%,1.0,-3.4%,-7%,-2,5,4%
NC(=O)CC(NC(=O)c1ccccc1)c1ccc(N2CCCCCC2)c([N+](=O)[O-])c1 (stereo not given),-8%,4.7,-0.9%,-12%,-13,-4,-10%
Cc1nn2c3ccccc3nc2n(C)c1=O,4%,3.6,-1.6%,-7%,-10,11,2%

# Whole records from above. Values in the order: Sfp PPTase inh, Menin-MLL FL inh, ClpP mod, gsp ag, D2 potentiator, TRPV1 potentiator, gsp antag
# NC(=O)CC(NC(=O)c1ccccc1)c1ccc(N2CCCCCC2)c([N+](=O)[O-])c1 (stereo not given) is listed with -8%, 4.7, -0.9%, -12%, -13, -4, -10%
# COc1ccc(CNC(=O)CN(c2ccc(C)cc2)S(=O)(=O)c2c(C)noc2C)cc1 is listed with 11%, 3.1, -1.1%, -17%, -10, 4, -8%

# Screening data: PubChem, National Center for Advancing Translational Sciences (NCATS)
